Hsc70 ATP site – small molecules displacing fluorescent ligand from Hsc70 – biochemical, fluorescence polarization, primary screen (AID 568). Hsc70 fluorescence polarization, probe displacement; higher % means a stronger effect; strong numbers were not always called active. one-dose displacement, % at 20 µM; IC50 in µM for titrated hits. 83,000 tested, under 10 active;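 active = displacement above 50% without optical interference and an IC50 on retest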;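 note: ATPase domain with a fluorescein-tagged ATP probe; 0% = vehicle and 100% = excess ADP; read after one hour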
MT1-MMP promoter – MT1-MMP gene expression reporter suppression – cell-based, luciferase reporter, luminescence (AID 618); calls from a first round at 10 µM; hits with a dose series show EC50 in µM; actives 0.62% (n = 87,000); MT1-MMP promoter luciferase reporter cells, luminescence;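 active = over half of the reporter light lost at 10 µM or EC50 under 50 µM; inactive = the rest and hits that failed the dose series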;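 note: actives suppress MT1-MMP promoter-driven transcription so potencies describe inhibitors; HT1080 fibrosarcoma cells; overnight exposure; toxic or luciferase-blocking compounds were not removed from the actives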
WNV protease inh – blocks West Nile virus NS2B-NS3 protease activity. P06935. WNV NS2B-NS3 protease, fluorogenic substrate Ex360/Em465; hits give low values. z-score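 (tested at a level between 10 and 100 µM)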. actives 0.18% (n = 65,000);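 active = z-score at -3 or under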;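 note: score is relative to mean and spread of the compound wells of a plate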
Target sequence (P06935 1371-1501 limits assumed): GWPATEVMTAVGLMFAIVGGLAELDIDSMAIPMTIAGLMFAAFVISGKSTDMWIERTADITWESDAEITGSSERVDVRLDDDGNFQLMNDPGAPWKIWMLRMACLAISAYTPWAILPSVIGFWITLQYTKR
Target sequence (P06935 1502-1679 limits assumed): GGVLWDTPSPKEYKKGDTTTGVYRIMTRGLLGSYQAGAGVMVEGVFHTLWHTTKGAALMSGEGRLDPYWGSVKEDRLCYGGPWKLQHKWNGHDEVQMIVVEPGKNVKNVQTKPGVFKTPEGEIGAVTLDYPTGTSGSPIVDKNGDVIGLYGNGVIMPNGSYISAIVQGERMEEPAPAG
Starred values were filed as active, the others as inactive; i = inactive; . = no result given; + = active, no number.

SMILES	Hsc70 ATP site	MT1-MMP promoter	WNV protease inh
Cc1noc(C)c1S(=O)(=O)Nc1ccc(C(=O)N2CCN(c3ccc(Cl)cc3)CC2)cc1	-1.0%	i	0.74
CCc1c(C(=O)N/N=C/c2ccc(C)o2)csc1C	4.9%	i	.
CCOC(=O)CSc1nc2ccccc2c(=O)n1CC1COc2ccccc2O1 (stereo unspecified)	-5.1%	i	-0.48
C=C1Cn2c(nnc2-c2ccc(Cl)cc2)S1	-1.3%	i	0.3
CC(Oc1ccccc1)C(=O)NC1CCN(Cc2ccccc2)CC1 (stereo unspecified)	2.9%	i	-0.38
CS(=O)(=O)CCC(C(=O)n1nnc2ccccc21)N1C(=O)c2ccccc2C1=O (stereo unspecified)	-3.6%	i	-0.42
Cc1cccc(CS(=O)(=O)Cc2ccc(C(=O)O)o2)c1	2.6%	i	0.45
Cc1ccc2c(C(=O)CN3CCN(c4ccccc4)CC3)c(C)[nH]c2c1	-1.1%	i	-0.91
O=c1[nH]c2cc3c(cc2cc1C(c1nnnn1Cc1ccccc1)N1CCN2CCCC2C1)OCCO3 (stereo unspecified)	-11%	i	-0.98
Nc1nc(-c2cccc(Br)c2)cs1	0.7%	i	.
O=C(O)CCCC(=O)N1CCN(c2nc(-c3ccccc3)c3ccccc3n2)CC1	4.4%	i	-0.54
CCC[C@@H]1C[C@@H](C(=O)N[C@H]([C@@H](C)O)[C@H]2O[C@H](SC)[C@H](O)[C@@H](O)C2O)N(C)C1 (stereo partly specified)	-2.8%	i	1
O=c1cc(-c2ccccc2)c2ccccc2[nH]1	5.8%	i	1.1
Cc1c(NC(=O)c2ccccc2N)cccc1C(=O)O	-5.3%	i	-0.81
COc1ccc(Nc2nc(C)cc(=O)[nH]2)cc1	-5.1%	i	.
CCOc1ccc(N2C(=O)CC(SC(=NC)Nc3cccc(F)c3)C2=O)cc1 (stereo unspecified)	-5.2%	i	1.1
CCn1nnc(-c2ccccc2NS(=O)(=O)c2ccc(C(=O)OC)cc2)n1	-3.8%	i	-0.23
CCOc1ccccc1C(=O)N1CCN=C1SC	1.7%	i	-0.95
O=C(NCc1ccco1)c1cnn2c(C(F)(F)F)cc(-c3cccs3)nc12	3.0%	i	0.64
COC(=O)c1nc(-c2ccc(C)cc2)oc1N(C)C	-4.3%	i	-0.32
CC1CCc2nn(CC(=O)Nc3ccc(F)cc3F)cc2C1 (stereo unspecified)	9.6%	i	-0.29
CCn1c(=O)[nH]c2ccccc2c1=O	4.1%	i	.
COC(=O)c1cc(OC)c(OC)cc1NC(=O)CCC1CCCC1	1.5%	i	0.35
COc1ccc(N(CC(=O)NC2CCCC2)C(=O)CCC(=O)Nc2cc(C)on2)c(OC)c1	6.1%	i	0.82
CCOC(=O)c1[nH]c2ccccc2c1N=C(C)N(CC)CC	-6.0%	i	-0.07
O=c1[nH]c(=O)n(Cc2ccco2)c2c1C(C(F)(F)F)(C(F)(F)F)N=C(c1ccc(F)cc1)N2	-1.8%	i	.
O=C(CCc1nc2ccccc2[nH]1)N1CCN(C(=O)c2ccco2)CC1	0.2%	i	0.42
Cc1ccc(CNC(=O)CCNS(=O)(=O)c2ccc3c(c2)c(=O)n(C)c(=O)n3C)cc1	-1.5%	i	0.31
O=C(CSc1ncnc2nc[nH]c12)NCCc1ccccc1	-5.0%	i	0.13
Cc1cc(C(=O)NC(C)c2ccncc2)no1 (stereo unspecified)	-2.1%	i	-0.52

Among those listed so far, these have a thiophene ring, fused or not.
SMILES	Hsc70 ATP site	MT1-MMP promoter	WNV protease inh
CCc1c(C(=O)N/N=C/c2ccc(C)o2)csc1C	4.9%	i	.
O=C(NCc1ccco1)c1cnn2c(C(F)(F)F)cc(-c3cccs3)nc12	3.0%	i	0.64

Additional results
SMILES	Hsc70 ATP site	MT1-MMP promoter	WNV protease inh
Cc1ccc(NC(=O)CC2SCCNC2=O)cc1Cl (stereo unspecified)	-9.2%	i	-1.1
CCOC(=O)c1[nH]c2ccc(OC)cc2c1NC(=O)CCN1CCc2ccccc2C1	-1.9%	i	0.94
CC(C)CNC(=O)CSc1nnc(CN2CCCCCC2=O)n1-c1ccccn1	5.3%	i	0.66
COc1ccc(OC)c(-c2csc(N(Cc3ccco3)C(=O)c3cccs3)n2)c1	-4.3%	i	1.5
Cn1c(SCC(=O)NCc2cccs2)nnc1-c1cccs1	1.0%	i	0.49
CCOC(=O)C1CCN(C(=O)c2ccc(Cl)c(NC3=NC4CS(=O)(=O)CC4S3)c2)CC1 (stereo unspecified)	-0.3%	i	1
O=C(Nc1ccccc1)Nc1ccccc1C(=O)NCc1ccccc1	0.3%	i	.
CCc1ccc2c(COn3nnc4ccc(S(=O)(=O)N(C)C)cc43)cc(=O)oc2c1	4.5%	i	0.26
CCCCCn1c(CN(C)Cc2ccccc2)nc2c1c(=O)n(C)c(=O)n2C	-7.4%	i	0.68
CC(C)Cn1c(SCC(=O)NCc2ccc(Cl)cc2)nnc1-c1cccc(S(=O)(=O)N2CCOCC2)c1	-1.4%	i	.
CCN(CC)c1ccc(C(NC(C)=O)NC(C)=O)cc1	-4.5%	i	0.71
CCOC(=O)C1=C(C)Nc2ncnn2C1c1c[nH]c2ccccc12 (stereo unspecified)	-1.1%	i	-1.1
CCOC(=O)N1CCC(NC2CCCCCCC2)CC1	0.9%	i	-0.64
O=C(CCCOc1ccccc1)N1CCN(c2ccc(F)cc2)CC1	-3.4%	i	.
CCSC(C)CC1CC(=O)CC(=O)C1 (stereo unspecified)	-4.1%	i	-0.41
CCOCc1nnc(NS(C)(=O)=O)s1	1.1%	i	-1.1
Clc1ccc(Cn2nnc(-c3ccc(N4CCOCC4)cc3)n2)cc1	-2.1%	i	0.69
CCOc1nc(NC2CCCCC2)nc(NC(C)(C)C)n1	1.3%	i	.
Cn1nc(C(C)(C)C)cc1C(=O)Nc1nc2c(s1)C(=O)CC(C)(C)C2	-1.6%	i	-1.2
O=C(Nc1ccccc1N1CCCC1)c1cccnc1	5.5%	i	-0.66
CCOC(=O)c1[nH]c(C)c(C(=O)OCC(=O)N2CCc3ccccc32)c1C	0.3%	i	.
Cc1c(C(=O)O)oc2ccc(S(=O)(=O)N3CCCCC3C(=O)O)cc12 (stereo unspecified)	-3.2%	i	-0.4
O=C(c1cnc2sccn2c1=O)N1CCc2ccccc2C1	2.6%	i	-0.61
CCOc1ccccc1C(=O)N1CCC(C(=O)c2ccc(F)cc2)CC1	-2.6%	i	.
O=C(Nc1ccc(Cc2ccncc2)cc1)c1ccc(S(=O)(=O)N2CCOCC2)cc1	-4.3%	i	-0.13
Nc1ccc(Cl)cc1/C(=N/O)c1ccccc1	-3.1%	i	0.19
CCOC(=O)Cc1csc(NC(=O)CSc2nnnn2-c2ccc(C)cc2C)n1	-1.1%	i	.
O=C(CSc1nnc(-c2ccc(Cl)cc2Cl)n1C1CCCCC1)N1CCCC1	3.4%	i	.
CCn1c(C)nc2cc(-c3nnc(-c4c(-c5ccccc5)noc4C)o3)ccc21	-0.1%	i	-1.2
Cc1ccc(S(=O)(=O)N2c3ccccc3NC(=O)C2CC(=O)Nc2ccccc2)cc1 (stereo unspecified)	-3.9%	i	-1

Single records (already shown). Order of screens: Hsc70 ATP site	MT1-MMP promoter	WNV protease inh
Entry for CCOc1nc(NC2CCCCC2)nc(NC(C)(C)C)n1 = 1.3%	i	.
Entry for Cc1ccc(NC(=O)CC2SCCNC2=O)cc1Cl (stereo unspecified) = -9.2%	i	-1.1
Entry for Cc1c(C(=O)O)oc2ccc(S(=O)(=O)N3CCCCC3C(=O)O)cc12 (stereo unspecified) = -3.2%	i	-0.4
Entry for CCOC(=O)Cc1csc(NC(=O)CSc2nnnn2-c2ccc(C)cc2C)n1 = -1.1%	i	.
Entry for Cc1noc(C)c1S(=O)(=O)Nc1ccc(C(=O)N2CCN(c3ccc(Cl)cc3)CC2)cc1 = -1.0%	i	0.74

Next structures follow.
SMILES	Hsc70 ATP site	MT1-MMP promoter	WNV protease inh
COC(=O)C(C)Sc1nc(-c2ccc(OC)cc2)nc2c1c(=O)n(C)c(=O)n2C (stereo unspecified)	3.9%	i	0.34
Cc1onc(-c2ccccc2Cl)c1-c1nc(-c2ccncc2)no1	3.2%	i	.
Cn1nnnc1SCc1cccc(CSc2nnnn2C)n1	-5.3%	i	0.15
COc1ccc(N2CCN(C(=O)CSc3nnc(Cn4nnc5ccccc54)n3C)CC2)cc1	-1.9%	i	-0.0077
Cc1cc(C)cc(NC(=O)N2CCC(c3nc4ccccc4o3)CC2)c1	1.1%	i	-1.1
Cc1ccc(SCCC(=O)NC(C)(C)C)cc1	0.3%	i	.
COc1ccccc1Oc1ccc(S(=O)(=O)NCc2ccccn2)cc1	-3.2%	i	1.4
CCOc1cc(C2Nc3ccccc3C(=O)N2c2ccccc2)ccc1O (stereo unspecified)	-5.3%	i	1.4
CCOc1ccc(C(=O)N(Cc2ccc(OC)cc2)Cc2cc3cc(OC)ccc3[nH]c2=O)cc1	-4.1%	i	.
CCC(C)N(C(=O)COC(=O)CCc1c[nH]c2ccccc12)C1CCS(=O)(=O)C1 (stereo unspecified)	-0.2%	i	.
COc1cccc(CNC(=O)C(=O)NCC2CCCO2)c1 (stereo unspecified)	3.4%	i	.
COc1ccc(OC)c(NC(=O)CSc2nc(C)cs2)c1	-2.6%	i	0.09
O=C1N2CCCc3cccc(c32)C12Nc1ccccc1S2 (stereo unspecified)	2.7%	i	-0.36
COc1ccc(S(=O)(=O)C(C#N)c2nc3ccccc3nc2N2CCCC(C)C2)cc1 (stereo unspecified)	24%	i	-0.02
O=C(Nc1ccccc1-c1ccccc1)c1ccco1	-0.6%	i	0.93
CCCCn1c(SCC(=O)OCC)nnc1-c1ccoc1C	-1.2%	i	-0.11
COc1ccc(Nc2nc(-c3sc(N)nc3C)cs2)cc1	3.9%	i	-0.71
CN1CCC(N(C)C(=O)CCc2nc3ccccc3c(=O)[nH]2)CC1	7.5%	i	.
CCN(CC)c1ccc(NC(=O)COc2ccc(C)cc2)cc1	-0.4%	i	-0.09
CCOC(=O)c1ccc(N2C(=O)C3ON(c4ccccc4)C(c4ccco4)C3C2=O)cc1 (stereo unspecified)	-2.9%	i	0.36
COc1ccccc1Cn1c(-c2ccco2)nc2nc3ccccc3nc21	-7.7%	i	0.13
O=C(CCc1ccccc1)NCc1cccnc1	6.4%	i	.
COc1cc(S(=O)(=O)NCC2OCCc3ccccc32)ccc1-n1cnnn1 (stereo unspecified)	3.2%	i	.
CN(C(=O)COc1cccc(Br)c1)C1CCS(=O)(=O)C1 (stereo unspecified)	0.9%	i	-0.65
CCOC(=O)C1=C(C)NC(=O)CC1c1ccccc1 (stereo unspecified)	-3.2%	i	0.14
CCCCOc1ncnc2c1[nH]c1ccccc12	-1.1%	i	1.2
Cc1ccc2nc(NC3=NCN(C4CCCCC4)CN3)nc(C)c2c1	-3.0%	i	0.72
CCOC(=O)C1CCN(S(=O)(=O)c2ccc3[nH]c(=O)oc3c2)CC1	-2.9%	i	0.95
Cc1ccc(NC2=NCCCCC2)cc1C	0.5%	i	.
Cc1c(-c2ccccc2)[n+](=O)c2c(n1[O-])CCC2	0.7%	i	.
CCCCC(=O)Nc1nn(CCC)c2nc3ccccc3cc12	1.4%	i	-0.75
CCOc1ccccc1NC(=O)CSc1nnc(-c2ccccc2Cl)n1Cc1ccco1	-6.2%	i	-0.95
Cn1c(SCC(=O)OC2CCCCC2)nnc1-c1ccc2c(c1)OCO2	5.7%	i	-0.06
Cc1cc(NC(=O)CCC(=O)N(c2ccccc2)C(C(=O)NC2CCCC2)c2ccncc2)no1 (stereo unspecified)	2.2%	i	-0.07
Cc1nn(C)cc1NC(=O)CCSc1nc(-c2ccco2)cc(C(F)(F)F)n1	4.9%	i	-0.41
Cc1cccc(C)c1OCc1nnc2c3cnn(C)c3ncn12	2.1%	i	0.35
COc1cccc(NC2SC(=O)N(c3ccccc3)C2=O)c1 (stereo unspecified)	-0.9%	i	0.76
c1ccc2c(c1)CCN(Cc1nnnn1Cc1ccc3c(c1)OCO3)C2	1.7%	i	0.35
Cc1nc2ccccc2n1-c1nc(-c2ccco2)cc(C(F)(F)F)n1	0.8%	+	-0.23
O=C1CC(N2CCN(c3ccccc3Cl)CC2)C(=O)N1c1ccccc1 (stereo unspecified)	-1.5%	i	-0.41
c1ccc(-n2nc3ccccc3n2)cc1	-0.8%	i	.
O=C(c1cnn2c(C(F)(F)F)cc(-c3ccco3)nc12)N1CCCc2ccccc21	2.5%	i	0.8
CCCCOC(=O)C1=C(C)Nc2ncnn2C1c1cc(OC)c(OC)cc1OC (stereo unspecified)	-1.2%	i	-1.5
COCCNc1nc(=S)[nH]c2cc(OC)c(OC)cc12	-4.4%	i	0.88
O=c1cc2c(nn1Cc1ccc(Cl)cc1)-c1ccccc1CC2	-0.3%	i	.
O=C(CCNS(=O)(=O)c1cccs1)NCc1ccccc1	5.3%	i	.
CN(C)c1ccc(C(c2nnnn2C2CCCCC2)N2CCN(C(=O)c3ccco3)CC2)cc1 (stereo unspecified)	-1.7%	i	-0.65
O=C(NCC1CCCO1)c1ccc2c(c1)C(=O)N(C1CCCCC1)C2=O (stereo unspecified)	10%	i	-0.97
Oc1ccc2ccccc2c1CN1CCN(c2ccccc2F)CC1	0.4%	i	-0.19
COc1ccc2nc(NC(=O)c3ccoc3C)sc2c1	2.6%	i	-1
CCOc1cccc(-c2nnc(SCC(=O)Nc3cccc(OC)c3)n2N)c1	-15%	i	-2.2
COc1ccccc1Cn1c(=O)[nH]c2cccnc21	0.5%	i	0.23
